KCNQ2 block: KCNQ2 potassium channel inhibitors, primary screen, cell-based, CHO-K1, FluxOR thallium flux, B-score (AID 2156) | 1.1% of 310,000 active | B-score at 10 µM | 20 min; active compounds read low; only compounds with negative scores are shown here; some inactives read as strong as hits | O88943;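 active = fluorescence ratio B-score at most minus 3 library SDs, with starting brightness B-score within 2 library SDs, cut at about -5.5 in these data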
Target sequence (O88943 whole entry, looked up): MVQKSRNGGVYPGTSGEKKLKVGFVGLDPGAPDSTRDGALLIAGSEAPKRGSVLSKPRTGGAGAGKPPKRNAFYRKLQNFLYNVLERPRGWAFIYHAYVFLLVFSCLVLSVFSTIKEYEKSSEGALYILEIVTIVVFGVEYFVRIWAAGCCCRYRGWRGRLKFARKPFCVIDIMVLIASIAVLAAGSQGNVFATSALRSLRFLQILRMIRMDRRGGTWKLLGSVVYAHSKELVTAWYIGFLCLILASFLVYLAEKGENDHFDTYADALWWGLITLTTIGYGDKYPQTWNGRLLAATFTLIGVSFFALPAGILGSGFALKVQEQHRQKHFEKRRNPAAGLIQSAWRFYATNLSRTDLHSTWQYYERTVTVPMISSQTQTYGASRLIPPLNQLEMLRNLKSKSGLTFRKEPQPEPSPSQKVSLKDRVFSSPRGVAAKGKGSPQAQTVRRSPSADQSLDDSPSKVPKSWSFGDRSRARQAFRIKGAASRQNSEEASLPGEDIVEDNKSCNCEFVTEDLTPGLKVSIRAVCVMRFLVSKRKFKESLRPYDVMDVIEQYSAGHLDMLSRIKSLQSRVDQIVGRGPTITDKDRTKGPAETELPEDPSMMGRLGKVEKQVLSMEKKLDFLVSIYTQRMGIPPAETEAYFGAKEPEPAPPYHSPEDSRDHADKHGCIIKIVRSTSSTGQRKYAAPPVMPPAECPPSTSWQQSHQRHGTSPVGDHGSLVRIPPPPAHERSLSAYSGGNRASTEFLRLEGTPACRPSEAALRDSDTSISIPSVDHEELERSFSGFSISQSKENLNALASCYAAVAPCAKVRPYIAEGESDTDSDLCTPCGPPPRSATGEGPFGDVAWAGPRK
KCNQ2 block baseline: second read-out of KCNQ2 block, no call of its own (marks repeat the call); B-score; measured here: initial fluorescence intensity artifact check;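 brightness before thallium and not channel activity; 0 = typical well and far values either way flag optical interference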
Starred values were filed as active, the others as inactive; i = inactive. This is a subset; count on the stated rates, not on these rows.

SMILES	KCNQ2 block	KCNQ2 block baseline
O=C(NCc1ccncc1)C(F)(F)C(F)(F)C(=O)NCc1ccncc1	i	-0.06
COc1ccc(-n2c(O)c(/C=N/NS(=O)(=O)c3ccc(C)cc3)c3ccccc3c2=O)cc1OC	i	5.9
COC(=O)c1sc(N)c(C(=O)OC)c1Cn1ncc(Cl)c(Cl)c1=O	i	-0.8
C=CCNc1nc2ccccc2nc1NS(=O)(=O)c1ccc(F)cc1	i	-1.5
CCc1nnc(NC(=O)C2CCCN(c3nc4ccccc4s3)C2)s1 (stereo not given)	i	0.41
Cc1ccn2c(C(=O)CSc3ccccc3)c(C)nc2c1	i	3.6
O=C(CN1C(=O)NC2(CCCCC2)C1=O)NC1CCCc2ccccc21 (stereo not given)	i	-0.97
CC(CCc1ccccc1)NC(=O)c1nnc(Cc2ccc(Cl)cc2)o1 (stereo not given)	i	-1
COc1ccc(C(C(=O)NC(C)(C)C)N(C(=O)CCC(=O)Nc2cc(C)on2)c2c(C)cccc2C)cc1 (stereo not given)	i	0.59
COc1ccc2nc3oc(C(=O)N4CC(C)CC(C)C4)cc3cc2c1 (stereo not given)	i	-0.2
CC(=O)C1C(=O)C=C(c2ccco2)CC1c1ccccc1 (stereo not given)	i	-0.07
COc1ccc(-c2nn(-c3ccccc3)cc2C(=O)O)cc1	i	3.8
O=C(Nc1cccc(Cl)c1)N(Cc1nc2ccccc2c(=O)[nH]1)C1CCCC1	i	-1.8
O=C(Nc1ccccc1Br)c1c(F)cccc1Cl	i	0.25
Cc1ccc(C)c(S(=O)(=O)N2CCCCC2CCNC(=O)C(=O)NC2CCCC2)c1 (stereo not given)	i	-1.2
Cc1ccc(CN2CCN(/N=C/c3ccc(C)s3)CC2)c(C)c1	-7.9*	-0.88*
O=C(CSc1nnc(CCCN2C(=O)c3cccc4cccc(c34)C2=O)n1-c1ccccc1)NCCCN1CCOCC1	i	-0.07
O=C(CSc1nc(=O)n2cc(Cl)ccc2n1)Nc1ccc2c(c1)OCO2	i	1.4
O=C(/C=C/c1ccc(Cl)cc1)c1cccnc1	-7.6*	-0.05*
CC(SCc1ccccc1)C(=O)Nc1ccc(F)cc1 (stereo not given)	i	0.61

The closing 7 compounds of the section above open the next one:
SMILES	KCNQ2 block	KCNQ2 block baseline
O=C(Nc1ccccc1Br)c1c(F)cccc1Cl	i	0.25
Cc1ccc(C)c(S(=O)(=O)N2CCCCC2CCNC(=O)C(=O)NC2CCCC2)c1 (stereo not given)	i	-1.2
Cc1ccc(CN2CCN(/N=C/c3ccc(C)s3)CC2)c(C)c1	-7.9*	-0.88*
O=C(CSc1nnc(CCCN2C(=O)c3cccc4cccc(c34)C2=O)n1-c1ccccc1)NCCCN1CCOCC1	i	-0.07
O=C(CSc1nc(=O)n2cc(Cl)ccc2n1)Nc1ccc2c(c1)OCO2	i	1.4
O=C(/C=C/c1ccc(Cl)cc1)c1cccnc1	-7.6*	-0.05*
CC(SCc1ccccc1)C(=O)Nc1ccc(F)cc1 (stereo not given)	i	0.61
C[N+]1(CC2COC3(CCCCC3)O2)CCCCC1 (stereo not given)	i	1.2
Cc1nn(CC(=O)NCC2CCCO2)c(=O)c2cc3ccccc3n12 (stereo not given)	i	-0.07
CCCCC(=O)Nc1nnc(S(=O)(=O)N2CCCCCC2)s1	i	0.69
Cc1cccc(-c2cc3c(nn2)-c2ccccc2C3=O)c1	i	0.01
COc1cc(NC(=O)/C=C/c2ccccc2)c(C(=O)O)cc1OC	i	0.01
COCCN(C(=O)CCC(=O)Nc1cc(C)on1)C(C(=O)NC(C)(C)C)c1cccc(OC)c1OC (stereo not given)	i	0.01
O=C(CSC1=NS(=O)(=O)c2ccccc21)Nc1ccccc1	-6.4*	1.4*
Cc1ccc(C2c3c(-c4ccccc4O)n[nH]c3C(=O)N2Cc2ccncc2)cc1 (stereo not given)	i	-0.67
CC(NC(=O)C(C)N1C(=O)c2cccc([N+](=O)[O-])c2C1=O)c1ccccc1 (stereo not given)	i	1.3
Cc1ccc(S(=O)(=O)Nc2ccc(C(=O)N3CCCC3)cc2)cc1	i	0.73
CC(Sc1nc2c(c(=O)[nH]1)CCCC2)C(=O)Nc1ccc(Br)cn1 (stereo not given)	i	1
Cc1onc(-c2c(Cl)cccc2Cl)c1COC(=O)c1ccc([N+](=O)[O-])cc1	i	-2.1
CN(C)c1nc(OCCOC(=O)c2ccccc2)nc(N(C)C)n1	i	0.86
CC(C)n1cc(C(=O)c2cc(Br)ccc2O)cc(C#N)c1=O	i	0.08
CCOc1ccc(N/C(N)=N/c2nc(CSc3nnc(C)s3)cc(=O)[nH]2)cc1	i	1.5
Cc1nc(NCCc2ccccc2)c2oc3ccccc3c2n1	i	-1.1
Cc1ccc(C(=O)N/C(=C\c2ccco2)C(=O)NCCN2CCCCC2)cc1C	i	-0.01
O=C(NC1CCCc2ccccc21)c1cn2ccccc2n1 (stereo not given)	i	1.7
Cc1ccc(NCc2ccc(O)c3ncccc23)cc1C	i	0.08
O=C(c1cccc(F)c1)N1CCc2ccccc2C1	i	-0.57
O=C(O)CN1C(=O)/C(=C/c2ccc(N3CCCCC3)o2)SC1=S	i	4.8
CCOc1ccc(CNC(=O)c2cc3oc4ccccc4c3n2C)cc1	i	-0.22
CC1CCC/C(=N\Nc2ccc(Cl)c(C(=O)O)c2)C1 (stereo not given)	i	-0.02
CCOC(=O)CSc1nc2sc3c(c2c(=O)n1C1CCCCC1)CCN(C)C3	i	-3.1
O=C(NCCC1CCCCN1S(=O)(=O)c1ccccc1)C(=O)NCc1ccccc1 (stereo not given)	i	0.93
O=c1c(Cc2ccc(F)cc2)c(O)ccn1CCc1cnc[nH]1	i	0.33
CCOC(=O)Cc1csc(SC(C)C(=O)NC2CCCCC2C)n1 (stereo not given)	i	0.44
CC1CCCCC1NC(=O)CCc1nc2sc3c(c2c(=O)[nH]1)CCCC3 (stereo not given)	i	0.01
CC1(C)CC(NC(=S)Nc2ccc(S(N)(=O)=O)cc2)CC(C)(C)N1	i	-1.5
O=C(CN1C(=O)c2cccc3cccc1c23)N1CCN(Cc2ccc3c(c2)OCO3)CC1	i	0.47
O=C(NN1c2ccccc2CCc2ccccc21)c1ccccc1Br	i	0.39
CCOC(=O)N1CCC(N2C(=O)c3ccccc3C2Nc2ccc3c(c2)OCCO3)CC1 (stereo not given)	i	0.77
Cc1onc(-c2ccc(Cl)cc2Cl)c1C(=O)/C=C/N(C)C	i	0.18
O=C(CSc1nccc(-c2ccc(Br)cc2)n1)NCCc1ccccc1	i	1.7
COCCNC(=O)C(c1ccncc1)N(C(=O)c1sc(C)nc1C)c1cccc(C)c1 (stereo not given)	i	1.2
Cc1ccc(C(=O)N/N=C/C=C/c2ccccc2)o1	i	0.09
O=C(Nn1c(SCc2ccc(F)cc2)nc2ccsc2c1=O)c1ccccc1	i	0.44
CCOC(=O)c1sc(NC(=O)c2ccc(S(=O)(=O)N3CCOCC3)cc2)nc1-c1ccccc1	i	0.33
CCCCN(C(=O)NC(=O)Nc1cccc(C)c1C)S(C)(=O)=O	i	-1.1
COCCNC(=O)/C=C/c1c(Cl)cccc1Cl	i	0.36
Cn1c(=O)n(Cc2ccccc2F)c(=O)c2c1nc1n2CCN1Cc1ccco1	i	-1.2
O=[N+]([O-])c1ccc(-c2cnc(SC(c3ccccc3)c3ccccc3)[nH]2)cc1	i	-1.8
CCCCCCCNC(=O)C1(CC2CC(c3cccc(Br)c3)=NO2)CCNCC1 (stereo not given)	-8.6*	3.2*
Cc1onc(-c2ccccc2Cl)c1C(=O)N1CCCCC1C(=O)O (stereo not given)	i	0.76
Cc1nn(C)cc1/C=N/NC(=S)Nc1ccc(Cl)cc1Cl	i	-0.74
Nc1ccccc1C(=O)Nc1nccs1	i	1.6
COc1ccccc1-n1ccnc(SCC(=O)NCc2ccccc2Cl)c1=O	i	-0.89
O=C(Nc1cc(S(=O)(=O)N2CCOCC2)ccc1N1CCCC1)c1ccc2c(c1)S(=O)(=O)c1ccccc1C2=O	-5.9*	-0.26*
O=[N+]([O-])c1ccccc1/C=C/C=N/Nc1ccc(S(=O)(=O)Nc2ccc(Cl)cc2)cc1[N+](=O)[O-]	i	0.06
Clc1c(OCCCn2ccnc2)ccc2ccccc12	i	4.7
CCN(CC)c1ccc([N+](=O)[O-])cc1/C=N/NC(=O)CC#N	i	0.86
CCCc1nn2c(=O)cc(CSCC(=O)Nc3ccc(OC)cc3)nc2s1	i	-0.73
Cn1ccsc1=NC(=O)c1cccc(OC(F)F)c1	i	1.6
Cn1ncc(Cl)c1C(=O)N/N=C/c1cc2c(cc1[N+](=O)[O-])OCO2	i	-1.5
O=C(NCCc1ccccc1)c1ccc(Cl)cc1[N+](=O)[O-]	i	0.46
COc1cccc(-c2cc(C(=O)NCCCn3ccnc3)no2)c1	i	2.1
Cc1ccc(S(=O)(=O)c2cc(O)ccc2O)cc1C	i	-0.11
Cc1nn(C)c(=O)c(N)c1-c1cc(-c2ccc(Cl)c(Cl)c2)n[nH]1	i	-1.1
CCOC(=O)C1=C(c2ccccc2)NC(=O)NC1c1ccc(OC)cc1OC (stereo not given)	i	-0.16
CSCCNC(=O)Nc1c(-c2c(Cl)cccc2Cl)noc1C	i	-0.75
Following part
SMILES	KCNQ2 block	KCNQ2 block baseline
Cc1ccc(C(=O)COC(=O)CCN2C(=O)C3C4CCC(C4)C3C2=O)cc1C (stereo not given)	i	-4
CCOC(=O)c1cnn(-c2cc(C(C)(C)C)nc3c(-c4ccccc4)c(C)nn23)c1N	i	-1.5
CCCCn1c(N)c(N(CCC(C)C)C(=O)c2oc3ccc(OCC)cc3c2C)c(=O)[nH]c1=O	i	0.78
CCC1CSC(Nc2ccc(C(=O)/C=C/c3cccc(C)c3)cc2)=N1 (stereo not given)	i	0.61
CCOC(=O)c1ccccc1NS(=O)(=O)c1c(C)nc2sccn2c1=O	i	3.2
Cc1cc(C)c(O)c(NC(=S)NC(=O)Cc2ccccc2)c1	i	-2.1
COc1ccc2c(c1)nc(SCC(=O)c1ccc(Br)s1)n2C	i	-1.4
CCCN(Cc1cc2ccc(C)cc2[nH]c1=O)S(=O)(=O)c1ccccc1	i	1.1
c1ccc(-c2cn3nc(-c4ccccc4)c(-c4ccccc4)nc3n2)cc1	i	2.5
CC(NC(=O)Cn1cc(Br)c([N+](=O)[O-])n1)c1ccccc1 (stereo not given)	i	-1.3
Cc1c2c(nc3nc4ccccc4n13)CC(C)(C)CC2=O	i	0.08
COc1ccc(C#Cc2c(-c3ccsc3)oc3ccc(N4CCOCC4)cc23)cc1	i	0.03
COc1ccc(/C=C2\CCC(C3CCCC3)C2=O)c(OC)c1 (stereo not given)	i	1
CC(=O)NCCNc1ccc([N+](=O)[O-])cn1	i	-0.24
COC(=O)C(C(=O)NCC1CCCO1)C1CCCC1 (stereo not given)	i	0.31
Cc1cc(C)cc(NC(=O)C(NCCN2CCOCC2)c2ccccc2)c1 (stereo not given)	i	0.99
C[C@]12C(=O)N(c3ccccc3)C(=O)N1[C@@H]1c3ccccc3OC[C@@H]1[C@H]2c1ccccc1	i	-0.97
COc1ccccc1-c1c(C)[nH]n2c(=O)c(Cc3ccccc3)c(C)nc12	i	-0.04
COc1ccc(CNC(=O)COC(=O)c2cccs2)cc1	i	0.56
O=C(CNC(=O)Cc1cccc2ccccc12)NCc1ccccc1F	i	-3.1

Filtered by structure: the compounds so far with a tert-butyl group
SMILES	KCNQ2 block	KCNQ2 block baseline
COc1ccc(C(C(=O)NC(C)(C)C)N(C(=O)CCC(=O)Nc2cc(C)on2)c2c(C)cccc2C)cc1 (stereo not given)	i	0.59
COCCN(C(=O)CCC(=O)Nc1cc(C)on1)C(C(=O)NC(C)(C)C)c1cccc(OC)c1OC (stereo not given)	i	0.01
CCOC(=O)c1cnn(-c2cc(C(C)(C)C)nc3c(-c4ccccc4)c(C)nn23)c1N	i	-1.5

(further entries)
SMILES	KCNQ2 block	KCNQ2 block baseline
CCC(C)(C)NC(=O)C(c1ccc(OC)cc1)N(Cc1ccccc1)C(=O)CCC(=O)Nc1cc(C)on1 (stereo not given)	i	-0.67
CCCCC(CCC(=O)NNC(=O)Cc1ccccc1)C(=O)O (stereo not given)	i	1.7
CC1CC(C)CN(C(=O)c2ccc(C#N)cc2)C1 (stereo not given)	i	1.3
O=C(NCc1nnc(SCC(=O)N2CCOCC2)o1)c1c(F)cccc1F	i	-2.7
COc1ccccc1NS(=O)(=O)c1cc(NC(=O)C2CC2)ccc1N1CCOCC1	i	-1.2
COC(=O)CNc1c(-c2ccccn2)nc2ccc(Br)cn12	i	1.4
Cc1ccccc1N(C(=O)c1csnn1)C(C(=O)NC1CCCC1)c1ccncc1 (stereo not given)	i	1.6
CN(c1ccccc1)S(=O)(=O)c1cccc(NC(=O)CCN2C(=O)C3CCCCC3C2=O)c1 (stereo not given)	i	-0.17
COc1ccccc1N1CCN(/N=C/c2ccc([N+](=O)[O-])cc2)CC1	i	-0.3
Cc1ccccc1C(=O)Nc1ccc(N2CCN(C(=O)c3ccco3)CC2)cc1	i	-0.72
CC(C)=CCN1CCN(CC#Cc2ccccc2)CC1CCO (stereo not given)	i	1.9
CC(Sc1nnc(COc2ccc3ccccc3c2)n1C)C(=O)O (stereo not given)	i	-0.22
Cc1cc(C(=O)CN2C(=O)C3CC=CCC3C2=O)c(C)n1-c1ccccc1 (stereo not given)	i	-1.8
C/C=C1\COC(C(=O)NCCN2CCCC2)(C(F)(F)F)C=C1C=C1CCCCC1 (stereo not given)	i	-0.67
CC1=C(C(=O)c2ccccc2)C(c2ccc(OC(F)F)cc2)NC(=S)N1 (stereo not given)	i	-0.34

Entries from the list above that have a cyano group (3):
SMILES	KCNQ2 block	KCNQ2 block baseline
CC(C)n1cc(C(=O)c2cc(Br)ccc2O)cc(C#N)c1=O	i	0.08
CCN(CC)c1ccc([N+](=O)[O-])cc1/C=N/NC(=O)CC#N	i	0.86
CC1CC(C)CN(C(=O)c2ccc(C#N)cc2)C1 (stereo not given)	i	1.3

Part of the list above, in markdown.
| compound | KCNQ2 block | KCNQ2 block baseline |
| --- | --- | --- |
| CC1CC(C)CN(C(=O)c2ccc(C#N)cc2)C1 (stereo not given) | i | 1.3 |
| O=C(NCc1nnc(SCC(=O)N2CCOCC2)o1)c1c(F)cccc1F | i | -2.7 |
| COc1ccccc1NS(=O)(=O)c1cc(NC(=O)C2CC2)ccc1N1CCOCC1 | i | -1.2 |
